Cruzain inh noDet – qHTS Assay for Promiscuous and Specific Inhibitors of Cruzain (without detergent). purified cruzain, Z-FR-AMC fluorescence, no detergent. Cruzipain (Trypanosoma cruzi), P25779. Potency, µM, for the others: max response, negative = inhibition, most hits filed as inhibitors. hit rate 2.3% among 200,000; active = well fitted curve in the direction sought with a large enough effect; inconclusive = small, poorly fitted or top-dose-only effect, or another doubt; inactive = no such curve, though single readings can be large; an effect the other way counts as inactive or inconclusive;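 note: plate controls were enzyme without inhibitor for no effect and buffer without enzyme for full effect; nearly all actives have a fitted effect of over 40% in size; top concentration of the series not given in the record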
Target sequence (P25779 123-467 limits assumed): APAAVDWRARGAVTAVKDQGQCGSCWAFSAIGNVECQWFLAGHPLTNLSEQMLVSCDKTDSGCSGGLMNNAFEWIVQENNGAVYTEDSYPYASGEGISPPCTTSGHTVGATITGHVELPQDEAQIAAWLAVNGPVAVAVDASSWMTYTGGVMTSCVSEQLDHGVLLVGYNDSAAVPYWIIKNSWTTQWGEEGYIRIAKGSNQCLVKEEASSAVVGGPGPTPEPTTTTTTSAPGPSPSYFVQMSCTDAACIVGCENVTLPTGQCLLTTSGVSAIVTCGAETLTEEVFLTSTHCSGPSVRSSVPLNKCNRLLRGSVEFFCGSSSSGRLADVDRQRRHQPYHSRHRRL
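Detergent-free condition (0.00005% Triton X-100) in acetate buffer pH 5.5 with DTT. 1.5 nM enzyme and compound were pre-mixed 15 min, then 2 uM Z-FR-AMC substrate added; reaction progress from fluorescence change between first and third reads (60 s).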
Cruzain Triton – qHTS Assay for Promiscuous and Specific Inhibitors of Cruzain (with detergent) | Potency, µM, for inactives: max response, negative = inhibition, most hits filed as inhibitors | hit rate 0.43% among 200,000 | purified cruzain, Z-FR-AMC fluorescence, 0.01% Triton | Cruzipain (Trypanosoma cruzi), P25779; active = well fitted curve in the direction sought with a large enough effect; inconclusive = small, poorly fitted or top-dose-only effect, or another doubt; inactive = no such curve, though single readings can be large; an effect the other way counts as inactive or inconclusive;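 note: plate controls were neutral wells for no effect and buffer without enzyme for full effect; nearly all actives have a fitted effect of over 40% in size; top concentration of the series not given in the record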
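Purified cruzain (1.5 nM final) was preincubated with compounds for 15 min at room temperature in 100 mM sodium acetate pH 5.5, 5 mM DTT, 0.01% Triton X-100. Reaction started with 2 uM Z-FR-AMC; AMC fluorescence change over 60 s gave activity.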
RE007 growth inh – qHTS Assay for Inhibitors of the HIV-1 protein Vpr; S. pombe RE007 Vpr strain, BacTiter-Glo ATP luminescence, 24 h; control for the full effect not named in the record; AID 651644, 2012; hit rate 0.21% among 360,000; Potency, µM (series often up to 92.2 µM), for the others: at the highest dose activity change, negative = less growth; active = well fitted falling curve with a large enough effect; inconclusive = small, poorly fitted or top-dose-only effect; inactive = no such curve, though single readings can be large or run the other way;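 note: % is set by controls: 0 for no effect and ±100 for the full control effect; nearly all actives have a fitted effect of over 50% in size; the assay follows cell death caused by Vpr and the record does not say whether a fall means rescue or toxicity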
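Fission yeast strain RE007, carrying one chromosomally integrated HIV-1 vpr copy, was seeded at OD 0.01 in PMG+AL medium with 23 nL pinned compound. After 24 h at 30 °C and 99% humidity, viability was read by BacTiter-Glo luminescence.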
MARV entry inh – qHTS for inhibitors of binding or entry into cells for Marburg Virus; hit rate 1.8% among 300,000; Marburg virus pseudotyped entry inhibition, cell reporter; control for the full effect not named in the record; about a third of the inactives were read at about 46 µM; Potency, µM (top dose mostly 37.8 µM), for the others: at the top dose activity change, negative = inhibition, most hits filed as inhibitors; active = well fitted inhibition curve with a large enough effect; inconclusive = small, poorly fitted or top-dose-only effect, or effect the other way; inactive = flat fitted curve, though single readings scatter; tested in HEK293 cells; about a fifth of its hits are not listed in these tables; note: % is set by controls: 0 for no effect and ±100 for the full control effect; luciferase read-out
LASV entry inh – qHTS for Inhibitors of binding or entry into cells for Lassa Virus. Lassa virus pseudotype entry inhibition, cell reporter; control for the full effect not named in the record. Potency, µM (series often up to 37.9 µM), without a hit: at the highest dose activity change, negative = inhibition, usual class: inhibitors. hit rate 1.2% among 300,000; active means well fitted inhibition curve with a large enough effect; inconclusive means small, poorly fitted or top-dose-only effect, or effect the other way; inactive means flat fitted curve, though single readings scatter; tested in HEK293 cells; note: % is set by controls: 0 for no effect and ±100 for the full control effect; nearly all actives have a fitted effect of over 50% in size; luciferase read-out
SARS PLpro yeast – qHTS of Yeast-based Assay for SARS-CoV PLP; S. cerevisiae expressing SARS-CoV PLpro, growth rescue; control for the full effect not named in the record; Potency, µM (titrated, usually from 32.9 µM), for the others: top-dose activity, positive = growth rescue; hit rate 0.19% among 330,000; AID 485353, 2010; note: 0% is about no effect; nearly all actives have a fitted effect of over 55% in size; growth read by luminescence after 48 h
StopGo reporter – High Throughput Screening for Foot and Mouth Disease Virus Antivirals. Potency, µM (series often up to 57.9 µM), without a hit: top-dose signal change, negative = less light. human cells with a luciferase reporter of 2A StopGo recoding; control for the full effect not named in the record. hit rate 1.2% among 410,000. AID 1159524, 2015; active = well fitted falling curve with a large enough effect; inconclusive = small, poorly fitted or top-dose-only effect; inactive = no such curve, though single readings can be large or run the other way; tested in HEK293T cells; note: % is set by controls: 0 for no effect and ±100 for the full control effect; nearly all actives have a fitted effect of over 45% in size; luciferase light after 4 h
NS1 function inh – qHTS Assay for Inhibitors of Influenza NS1 Protein Function; S. cerevisiae slowed by influenza A NS1, growth recovery by OD600; Potency, µM (titrated, usually from 46.1 µM), for the others: at the top dose activity, positive = more growth; hit rate 0.4% among 270,000; note: actives are rising curves; nearly all actives have a fitted effect of over 50% in size
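In this qHTS, NS1 from influenza A is expressed in budding yeast, where it slows growth. Cells are switched from glucose to 2% galactose medium (pH 6.0, -URA), treated with compound, and growth recovery is read at OD600.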
Numbers without * were called inactive; ? = inconclusive; . = not tested or not shown; & = joins results of further samples; [ ] = dose if it differs, or a comment. Unless noted, calls come from the whole dose curve; as a rule, active means well fitted rising curve with a large enough effect; inconclusive means small, poorly fitted or top-dose-only effect; inactive means no such curve, though single readings can be large or run the other way. Potency is the fitted concentration of half-maximal effect.

SMILES | Cruzain inh noDet | Cruzain Triton | RE007 growth inh | MARV entry inh | LASV entry inh | SARS PLpro yeast | StopGo reporter | NS1 function inh
Cc1[nH]c(C)c(C(=O)/C=C/c2ccc([N+](=O)[O-])cc2)c1C | . | . | -16% | . | . | -14% | 21% | 14%
CN1CSC2=C(C#N)C(c3cccc(OCc4ccccc4)c3)CC(=O)N2C1 (stereo not given) | 6% | -13% | -5% | . | . | 7% | -16% | -103%
CC(C)(C)c1ccc(OCCNC(=S)Nc2ccccc2)cc1 | . | . | 6% | ? | ? | 0% | ? | -31%
COc1ccc(-c2c3c(=O)n(C)c(=O)n(C)c3c3n2-c2ccccc2NC3c2ccco2)cc1 (stereo not given) | -8% | -3.2% | . | ? | 0%[46.1 µM] | . | ? | .
CCOc1ccc(N(CC)C(=O)Cn2cnc3sc(C)c(S(=O)(=O)N4CCN(c5ncccn5)CC4)c3c2=O)cc1 | -5% | -0.8% | . | -2%[46.1 µM] | 23%[46.1 µM] | . | -21% | .
O=C1C(=O)N(c2ccccn2)C(c2cccc(F)c2)/C1=C(/O)c1ccccc1 (stereo not given) | . | . | 12% | . | . | -1% | -2% | 4%
COCCCNC(=S)NC(=O)c1ccc([N+](=O)[O-])cc1 | -10% | 0.3% | . | ? | 8% | 8% | 10% | 3%
O=C(CCSc1ccc(Br)cc1)Nc1cccnc1 | . | . | -3% | -17%[46.1 µM] | ? | -9% | -22% | -40%
CCOc1ccc(NC(=O)CN(C)C(=O)c2cc(-c3ccco3)nc3ccccc23)cc1OCC | . | . | -12% | ? | -27% | . | -23% | .
CCOC(=O)c1[nH]cnc1C(=O)Nc1ccc(F)cc1 | 4% | -0.6% | -16% | -9%&-27%[46.1 µM] | ? | 0% | 8%&0% | 1%
O=C(/C=C/c1ccc(F)cc1)Nc1cccc(S(=O)(=O)Nc2cccc(C(F)(F)F)c2)c1 | ? | -1.6% | -10% | 2% | 1% | 6% | 5% | 4%
C/C(=N/Nc1nc(-c2ccccc2)cc(-c2ccc(F)cc2)n1)c1cccc(N)c1 | -18% | -12% | 3% | -7% | ? | 1% | 8% | ?
Cc1ccc(CNC(=O)COC(=O)c2ccc(S(=O)(=O)N3CCCC3)cc2)cc1 | -2% | -6.4% | 15% | 28% | -27% | 10% | 8% | 5%
CC(C)(C)n1ncc2c(=O)n(CC(=O)Nc3ccccc3)cnc21 | 7% | 1.3% | 14% | -2% | -5% | -1% | -20% | -3%
C/C(N)=C(/C#N)C(=O)CSc1ccccc1F | . | . | -2% | . | 12% | 1% | 65%[activator] | 5%

The final 2 records of the part above come first, to join the parts.
SMILES | Cruzain inh noDet | Cruzain Triton | RE007 growth inh | MARV entry inh | LASV entry inh | SARS PLpro yeast | StopGo reporter | NS1 function inh
CC(C)(C)n1ncc2c(=O)n(CC(=O)Nc3ccccc3)cnc21 | 7% | 1.3% | 14% | -2% | -5% | -1% | -20% | -3%
C/C(N)=C(/C#N)C(=O)CSc1ccccc1F | . | . | -2% | . | 12% | 1% | 65%[activator] | 5%
O=C(C#Cc1ccccc1)c1cccc([N+](=O)[O-])c1 | -16% | 13µM* | ? | 13µM* | ? | -51% | 25µM* | -129%
Cc1nc(Cl)c(C(=O)NCCC(C)C)c(C)c1[N+](=O)[O-] | -3% | 1.7% | 18% | -32% | 4% | -3% | -9% | -4%
CCOC(=O)c1ccc(CC(=O)c2ccc(O)c(O)c2O)o1 | . | . | 4% | ? | -9% | 10% | -11% | 12%
O=C(COC(=O)c1nc(Cl)ccc1Cl)NC1CCS(=O)(=O)C1 (stereo not given) | . | . | 2% | -17% | -2% | . | -7% | .
O=C1C2CCCCC2C(=O)N1c1ccc(S(=O)(=O)Nc2ncccn2)cc1 (stereo not given) | . | . | -15% | 9% | -8% | -1% | -4% | -2%
CC(=O)c1ccc(NC(=O)c2cc3c([nH]c2=O)CC(c2ccccc2)CC3=O)cc1 (stereo not given) | 1% | -2.3% | . | 11%[46.1 µM] | -1%[46.1 µM] | . | 33%[activator] | .
CCN1CCN(CC(=O)Nc2cc(F)ccc2C)CC1 | 3% | 0.6% | 4% | 10% | 16% | -1% | 23% | 4%
Cc1ccc(Nc2c(-c3ccccn3)nc3cc(C)ccn23)cc1 | . | . | -17% | ? | ? | -31% | ? | .
CCCCNC(=O)NS(=O)(=O)c1ccc(C(=O)OC(C)C)o1 | -5% | 0.5% | 3% | 13% | 1% | 4% | -16% | 2%
Cc1c(NS(=O)(=O)c2cc([N+](=O)[O-])ccc2Cl)c(=O)n(-c2ccccc2)n1C | . | . | 0% | 5% | -2% | . | -18% | .
O=C(COc1ccc2ccccc2c1)NCCNC(=O)COc1ccc2ccccc2c1 | 25µM* | 7.2% | -3% | 16% | 2% | 11% | -24% | 7%
COc1ccc(NC2CCCN(Cc3cccc4cnccc34)C2)cc1 (stereo not given) | . | . | -11% | . | . | -5% | -29% | -17%
Cn1c(CC(=O)NN)c(Sc2ccccc2)c2ccccc21 | . | . | -8% | . | . | -4% | -10% | 9%
O=C(CC1C(=O)N(c2ccccc2)C(=O)N1Cc1ccc(F)cc1)Nc1cccc(F)c1 (stereo not given) | -12% | -5.5% | . | . | -27%[46.1 µM] | . | 4% | .
CCOC(=O)/C(C#N)=C/c1cc(C)n(-c2ccccc2)c1C | -8% | -11% | 8% | ? | ? | -6% | 0% | 0%
CCCCOc1cccc(C(=O)Nc2cccc3ccc(C)nc23)c1 | 0% | -3.7% | . | 2%[46.1 µM] | ? | . | -11% | .
CCOC(=O)c1ccc(NC(=O)C2CCCN(c3ccc(Sc4ccc(C)cc4)nn3)C2)cc1 (stereo not given) | -9% | -4.8% | . | ? | 6.3µM* | . | 11% | .
CCCCN(CC)CCNC(=O)CCNC(=O)Cn1ccc2ccccc2c1=O | . | . | 41% | -18%[46.1 µM] | 7%[46.1 µM] | 0% | -2% | .
CCc1csc(CNC(=O)C2CCC(=O)N(Cc3cccc(F)c3)C2)n1 (stereo not given) | . | . | 9% | -22% | 1% | -5% | -17% | -1%
O=C(COC(=O)COc1ccc(Br)cc1)NNC(=O)c1ccccc1 | . | . | 13% | ? | -2% | 2% | -3% | .
CCCOc1ccc(/C(O)=C2/C(=O)C(=O)N(CCN(C)C)C2c2ccc(OC)c(OC)c2)cc1 (stereo not given) | 4% | 2.3% | 9% | -1% | -4% | 6% | 5% | 0%
COc1ccc(OCC(=O)Nc2ccccc2C(=O)Nc2ccc(C(=O)O)cc2)cc1 | . | . | 8% | 7% | 2% | -2% | 2% | -11%
O=C(CNC(=O)c1ccc(Cl)cc1Cl)OCc1ccccc1 | . | . | 15% | 26%[46.1 µM] | -15% | -3% | 6% | .
Cc1ccc2c(c1)N(C(=O)CCC(=O)NC1CCCCCC1)CC(C)O2 (stereo not given) | . | . | 0% | . | . | 2% | -7% | -7%
Cc1ccc(S(=O)(=O)N2CCCCC2)cc1NC(=O)Nc1ccc(Cl)cc1Cl | . | . | 1% | . | . | 0% | ? | 3%
CCC(NC(=O)c1ccccc1NC(=O)c1ccco1)C(=O)NNC(=O)c1ccncc1 (stereo not given) | . | . | 12% | . | . | 0% | -3% | -2%
CC(=O)c1ccc(N2CCC(C(=O)O)CC2)cc1 | . | . | -4% | ? | 1%[46.1 µM] | -7% | -9% | .
CC[N+]1(C)CCC(O)(/C=C/c2ccccc2)C(C(=O)/C=C/c2ccccc2)C1 (stereo not given) | . | . | 8.9µM* | ? | ? | . | 0% | .
CCOc1ccc(-c2nnc(-c3cccnc3)o2)cc1OCC | 16% | -4.0% | -3% | 5% | 10% | 2% | 12% | -77%
CCC(C)NC(=S)Nc1ccc2nc(N3CCOCC3)cc(C)c2c1 (stereo not given) | . | . | -4% | . | . | -3% | 3% | -7%
CCN(CC1COc2ccccc2O1)C(=S)NC1CC2CCC1C2 (stereo not given) | . | . | -4% | . | . | -1% | -16% | -4%
Cc1ccc(CN2CCN(C3CCC3)CC2CCO)cc1 (stereo not given) | . | . | 2% | -18% | -18% | -4% | -15% | 2%
COc1cccc(CNC(=O)c2ccc(CS(=O)c3ccccc3)o2)c1 (stereo not given) | ? | -27% | -6% | . | -4%[46.1 µM] | -4% | -10%&2% | 0%
COc1ccc(Oc2nc(SC)nc3ccccc23)cc1 | -3% | -4.9% | -2% | ? | ? | 3% | ? | 1%
BrCCc1ccccc1 | -3% | 8.7% | -1% | 0% | . | 28% | -4% | .
CCOC(=O)c1c(C)[nH]c(C)c1S(=O)(=O)NCC1CCN(Cc2ccccc2F)CC1 | . | . | -7% | . | . | 3% | 34%[activator] | -2%
COc1cc2[nH]c(=S)nc(Nc3ccc(NC(C)=O)cc3)c2cc1OC | . | . | -1% | -8% | -4% | 1% | -5% | .
Cc1ccc(C(=O)N2CCOCC2)cc1[N+](=O)[O-] | 1% | -12% | -6% | 14% | 4% | 1% | -21% | -10%
CCOC(=O)c1c(NC(=O)c2cnn3c2NC(c2cccc(OC)c2)CC3C(F)(F)F)sc2c1CCCC2 (stereo not given) | 3.2µM* | -1.1% | -2% | ? | 9% | -16% | -11% | ?
COc1ccc(C(CNC(=O)c2cc(C)oc2C)N2CCOCC2)cc1 (stereo not given) | 4% | 3.0% | 12% | -2% | 14% | -9% | 96%[activator] | 5%

Compound profiles (already shown). Order of screens: Cruzain inh noDet	Cruzain Triton	RE007 growth inh	MARV entry inh	LASV entry inh	SARS PLpro yeast	StopGo reporter	NS1 function inh
Results for COc1ccc(C(CNC(=O)c2cc(C)oc2C)N2CCOCC2)cc1 (stereo not given) : 4%	3.0%	12%	-2%	14%	-9%	96%[activator]	5%
Results for CCOC(=O)c1c(NC(=O)c2cnn3c2NC(c2cccc(OC)c2)CC3C(F)(F)F)sc2c1CCCC2 (stereo not given) : 3.2µM*	-1.1%	-2%	?	9%	-16%	-11%	?
